# CBX7 inh: CBX7 chromodomain binding inhibitors, primary screen, biochemical, AlphaScreen | AlphaScreen His6-CBX7 / biotin-H3K27me3 peptide binding; active compounds read low | normalised signal (fraction of DMSO) (no concentration beside the values) | 1.1% of 66,000 active | AID 1224903, 2016; in the data active means normalised signal below about 0.5;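 further: 100 nL library stock added to about 20 µL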
# Target sequence (O95931 whole entry, looked up): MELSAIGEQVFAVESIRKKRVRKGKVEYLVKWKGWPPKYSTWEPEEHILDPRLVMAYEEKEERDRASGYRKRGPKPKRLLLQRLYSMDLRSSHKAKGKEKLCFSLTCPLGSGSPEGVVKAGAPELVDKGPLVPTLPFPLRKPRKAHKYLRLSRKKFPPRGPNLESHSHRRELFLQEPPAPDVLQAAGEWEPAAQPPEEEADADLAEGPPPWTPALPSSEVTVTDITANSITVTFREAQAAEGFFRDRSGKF
# CBX7 inh z-score: recorded beside CBX7 inh, whose call it bears; z-score; measured here: z-score of CBX7 signal; some inactives read as strong as hits; reference of the scale not given here;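 same signal on another scale; lower means less binding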
# The depositor's hits bear a star.
SMILES,CBX7 inh,CBX7 inh z-score
O=C(Nc1ccc(F)c(F)c1)C1CCCN(S(=O)(=O)c2cnc[nH]2)C1 (configuration not stated),1,0.49
O=C1CCCc2c1cc(C(=O)NCCc1ccccc1)c(=O)n2-c1ccccc1,1.1,0.89
Cc1cccc(N2C(=O)c3ccc(C(=O)Nc4ccccn4)cc3C2=O)c1C,1,1
O=C(Nc1ccc2c(c1)OCO2)[C@H](CSCc1ccccc1)N1Cc2ccccc2C1=O,0.71,-6.7
C=CCNC(=O)c1cc2c(n(-c3ccc(C)cc3)c1=O)CC(C)(C)CC2=O,1,0.88
CC1(C)NC(=O)N(CC(O)COc2ccc(Cl)cc2)C1=O (configuration not stated),1,0.97
CCC(=O)N1CCc2cc(S(=O)(=O)NC3CCCCC3)ccc21,1.3,2.2
Cc1cccc(NC(=O)C2CCCN(S(=O)(=O)c3c(C)noc3/C=C/c3cccs3)C2)n1 (configuration not stated),1,0.28
Cc1ccc(S(=O)(=O)N(CC(=O)N2CCN(c3ccccc3)CC2)c2ccccc2F)cc1,0.92,-0.16
CC(CCc1ccccc1)NC(=O)CCn1c(=O)[nH]c2ccccc2c1=O (configuration not stated),1.1,0.41
O=C(Nc1ccccc1F)C1CCCN(S(=O)(=O)c2cccc3cccnc23)C1 (configuration not stated),0.8,-2.1
Cc1ccc(Nc2c(-c3ccc(N(C)C)cc3)nc3cc(C)ccn23)cc1,1.1,1
CCCCCCCCc1ccc(-c2ccc(-c3nc(-c4ccncc4)no3)cc2)cc1,1.2,2.5
CCCNC(=O)Cn1cnc2sc(C(=O)Nc3ccc4c(c3)OCO4)c(C)c2c1=O,1,0.44
CCN1CCN(C(=O)c2cn(C)c(=O)c3cc(OC)c(OC)cc23)CC1,1.1,1
COc1ccccc1C(=O)Nc1cccc(-c2csc(-c3ccccc3)n2)c1,1,1.2
CC1CCC(NC(=O)CN2C(=O)COc3ccc(S(=O)(=O)N4CCOCC4)cc32)CC1 (configuration not stated),0.98,-0.47
CCCc1cc2c(=O)c(-c3ccccn3)coc2cc1O,1.1,2.2
COc1ccc(Nc2nnc(-c3ccc(C)c(S(N)(=O)=O)c3)c3ccccc23)cc1C(N)=O,0.92,-0.092
CCC1CCCCN1C(=O)c1n[nH]c(=O)c2ccccc12 (configuration not stated),1.1,0.66
O=C(Cc1ccc(NC2=NC3CS(=O)(=O)CC3S2)cc1)N1CCC(Cc2ccccc2)CC1 (configuration not stated),1.1,2.1
CCOC(=O)C1CCN(C(C(=O)Nc2c(C)cccc2C)c2ccccc2)CC1 (configuration not stated),0.93,-1.4
CCOC(=O)Nc1ccc2c(c1)N(C(=O)CN1CCN(C)CC1)c1ccccc1CC2,0.93,-1.1
CCOC(=O)c1c(C)n(-c2ccc(C)cc2)c2ccc(OCC(O)CNC3CCCC3)cc12 (configuration not stated),0.71,-6.3
Cc1cccc(N2CCN(c3ccc4nnc(C)n4n3)CC2)c1C,1,-0.027

# Continued; the last 3 above are carried over.
SMILES,CBX7 inh,CBX7 inh z-score
CCOC(=O)Nc1ccc2c(c1)N(C(=O)CN1CCN(C)CC1)c1ccccc1CC2,0.93,-1.1
CCOC(=O)c1c(C)n(-c2ccc(C)cc2)c2ccc(OCC(O)CNC3CCCC3)cc12 (configuration not stated),0.71,-6.3
Cc1cccc(N2CCN(c3ccc4nnc(C)n4n3)CC2)c1C,1,-0.027
Cc1cccc(-c2noc(CN(C(=O)COc3ccc(C(C)C)cc3Br)C(C)C)n2)c1,1,0.66
CCOC(=O)c1cnc2ccc(Br)cc2c1Nc1ccc2c(c1)OCCO2,0.84,-1.7
O=C([C@@H](c1ccccc1)N1Cc2ccccc2C1=O)N1CCOCC1,1,1.1
CCCCOc1ccc(-c2nnc(-c3ccc(-c4ccc(OC)cc4)cc3)o2)cc1,1,0.99
CC(=O)Nc1ccc2oc(-c3ccccc3)nc2c1,1,-0.12
O=C(Nc1cccc(F)c1)c1cccc2c1C(=O)N(C1CCCCC1)C2,1.1,4.8
COc1ccc(NCC(O)Cn2c(C)c(C)c3ccccc32)cc1 (configuration not stated),0.56,-20
COc1ccc(Cl)cc1NC(=O)c1cc(C)on1,1,1.4
CC(=O)N1CCC(=O)Nc2ccccc21,0.91,-1.7
c1ccc(-c2nnc3ccc(N4CCC(c5ccccc5)C4)nn23)cc1 (configuration not stated),0.9,-2.2
CN(CC(=O)N1CCCc2ccccc21)S(=O)(=O)c1ccc2c(c1)n(C)c(=O)c(=O)n2C,1.2,1.4
CCc1ccc(OCc2nc(-c3ccc(OC)cc3)no2)cc1,2.4,1.6
COc1ccc(NC(=O)CCc2c(C)nc3c(c(C)nn3-c3ccccc3)c2C)cc1Cl,1.2,1.7
COc1ccc(CCNC(=O)c2ccc3c(c2)NC(=O)C2CCCN32)cc1OC (configuration not stated),1,0.067
COc1ccc(Cl)cc1NC(=O)c1c(NCc2ccccn2)sc2c1CCC2,0.96,-2.1
O=C(Nc1cccnc1)c1cnn(-c2ccccc2)c1-n1cccc1,1,1
O=C(NCc1ccc(Cl)cc1)c1cnc2ccccn2c1=O,1,0.12
COc1ccc(NCc2nc3ccccc3n2CCOc2ccccc2C)cc1,0.56,-6.8
CC1CCN(S(=O)(=O)c2ccc3ncn(CC(=O)N4CCC(C(N)=O)CC4)c(=O)c3c2)CC1,1,0.18
CCC1=Nc2cc(C(=O)N3CCN(c4cccc(C)c4C)CC3)ccc2Sc2ccc(C)cc21,0.69,-4.5
CC(Oc1ccc(Cl)cc1Cl)c1nc(-c2ccncc2)no1 (configuration not stated),1,-0.0055
CCOc1ccc(-n2cc(C(=O)NCCOC)c3cc(OC)c(OC)cc3c2=O)cc1,0.98,-0.66
Fc1ccc(CNc2ccnc3cc(Cl)c(Cl)cc23)cc1,0.96,-0.14
O=C(C1=CCN(S(=O)(=O)c2ccccc2)CC1)N1CCN(c2ccccc2)CC1,0.98,-0.96
O=C(Cn1cnc2c(nnn2Cc2ccc(F)cc2)c1=O)N1CCc2ccccc21,0.84,-2.6

# The listing continues:
SMILES,CBX7 inh,CBX7 inh z-score
O=C(NCCN1CCC(Cc2ccccc2)CC1)c1ccc2c(c1)ncn2C1CCCCC1,0.93,-3.5
CCOc1cccc2sc(NC(=O)c3ccc(Cl)cc3Cl)nc12,1.1,1.7
CCCNC(=O)c1nn2c(C(F)(F)F)cc(-c3ccco3)nc2c1Br,1.1,2.5
Cn1c2ccccc2c2c(C(=O)N3CCN(c4ccccc4)CC3)cn(C3CCCCC3)c(=O)c21,0.75,-6.3
Cc1cc(C)n(-c2nc3ccccc3nc2Nc2ccc(N3CCCCC3)cc2)n1,0.42*,-21*
c1ccc(COc2ccc(CNCc3cccnc3)cc2)cc1,0.88,-1.3
N#Cc1ccccc1Cn1c(=O)n(CCC(=O)NCc2ccc3c(c2)OCO3)c(=O)c2sccc21,0.99,-0.2
COc1ccccc1NC(=O)[C@H](CCS(C)(=O)=O)N1Cc2ccccc2C1=O,0.96,-0.8
COCCCNC(=O)COc1ccc2c(c1)C(=O)CC(C)(C)O2,1,0.66
CCc1ccccc1NS(=O)(=O)c1ccc2[nH]cc(C(=O)N(CC(C)C)CC(C)C)c(=O)c2c1,0.81,-2.5
Cc1nn(-c2ccc(F)cc2)c2c1C(=O)CC(C)(C)C2,1,1.2
Cc1onc(-c2ccccc2)c1C(=O)N1CC(C)OC(C)C1 (configuration not stated),1,1.1
COc1cc(C)nc(N(C)S(=O)(=O)c2ccccc2)n1,1,0.35
CCOc1cc2c(cc1OCC)C(c1cc(OC)ccc1OC)NCC2 (configuration not stated),1.2,1.7
Cc1ccc(-c2nc3ncccc3o2)cc1NC(=O)c1ccccc1Cl,1.1,1.8
Cn1c(=O)c(=O)n(C)c2cc(S(=O)(=O)N3CCCC3C(=O)NCCc3ccccc3)ccc21 (configuration not stated),1.3,2.5
CC(=O)N1CCc2cc(S(=O)(=O)NCCN(C)Cc3ccccc3)ccc21,0.88,-0.47
COCCNC(=O)c1cc2c(n(-c3ccc(Cl)cc3)c1=O)CC(C)(C)CC2=O,0.98,-0.091
COc1ccc(CNC(=O)Cn2nc(C)c3ccccc32)cc1,1,1.6
O=C(O)CCC(=O)Nc1c(-c2ccccc2)nc2ccccn12,0.98,-0.51
O=C1CCCc2nn(-c3ccccc3)c(-c3ccncc3)c21,0.91,-3.4
Cc1cc(NC(=O)CSc2nnc(-c3ccccc3)o2)no1,1.4,0.9
Cc1nc(NCCc2ccccc2Cl)c2c(C)c(C)sc2n1,1.1,0.16
O=C(C1CC1)N1CCc2cc(S(=O)(=O)NCCCN3CCN(c4ccccc4F)CC3)ccc21,0.96,-0.44
COc1ccc(Cl)cc1NC(=O)c1cc(CC(C)C)on1,1.1,1.1

# Following part.
SMILES,CBX7 inh,CBX7 inh z-score
Cc1ccccc1OCCCC(=O)Nc1ccc(N2CCOCC2)cc1,0.87,-2.5
COc1cccc(NC(=O)C2CC(=O)N(c3ccc(Cl)cc3)C2)c1 (configuration not stated),1.1,0.94
Cc1ccc(NC(=O)CSc2nnc(-c3cccnc3)n2C)c(C)c1,1,0.81
CCc1ccc2oc(-c3ccc(C)c(NC(=O)Cc4ccccc4)c3)nc2c1,1,1.2
Cc1cc2c(Nc3cnc4ccccc4c3)ncnc2s1,0.93,-1.7
Cc1cc(C)n(-c2ccc3cccc(N)c3n2)n1,0.93,-0.78
CC1=Nc2cc(C(=O)NC(C)C)ccc2Sc2ccc(Cl)cc21,1.1,1.3
CC1CC(=O)Nc2ccccc2N1C(N)=O (configuration not stated),1,0.71
CCc1c(C)nc(Nc2nc(C)c3cc(C)c(C)cc3n2)[nH]c1=O,1,1.6
Cc1c(C(=O)Nc2ccc(F)cc2Cl)sc2ncn(CC(=O)N3CCC(C)CC3)c(=O)c12,1.1,0.93
CCNc1oc(COc2ccc(OC)cc2)nc1C#N,0.96,-0.41
Nc1cccc(NC(=O)c2ccccc2Cl)n1,1.1,2
CCCCC(O)(CCN1CCCCC1)c1ccc(OCC)cc1 (configuration not stated),0.86,-1.6
Cc1ccc(C(=O)Nc2ccc3c(c2)nc(C)n3Cc2ccccc2)cc1,0.97,-0.033
CCOC(=O)COc1ccc2c(=O)c(-c3ccc4c(c3)OCCO4)c(C(F)(F)F)oc2c1,0.98,-0.33
Cc1ccc2c(c1)-c1c(cnn1CC(=O)NCCC(C)C)CO2,1.1,1.9
CC(NC(=O)C1CCCN(S(=O)(=O)c2cccs2)C1)c1ccccc1 (configuration not stated),0.97,-0.57
O=C(Cn1ncc2c1-c1ccccc1OC2)N1CCN(c2ccc(Cl)cc2)CC1,0.78,-6.2
COCCN(C(=O)Nc1ccccc1)C(C)c1cccnc1 (configuration not stated),1.1,1
Cn1c(=O)[nH]c(=O)c2c1nc(CN1CCOCC1)n2CCN1CCOCC1,1.1,2.1
O=C(c1nn2c(c1Cl)NC(c1ccco1)CC2C(F)(F)F)N1CCN(c2ccc(F)cc2)CC1 (configuration not stated),0.95,-0.59
Cc1ccc(C(C)C)c(OCC(=O)Nc2ccc(-c3nc4ncccc4o3)cc2)c1,1.1,0.83
COc1cc(OC)cc(C(=O)NCCc2cc3c(OC)ccc(OC)c3[nH]c2=O)c1,1,1.4
O=C1NCCC(c2ccccc2)(c2ccccc2)N1,1,0.72
Cc1nc2c(C(=O)NCCc3ccccc3)cnn2c(C)c1Cc1cccc(Cl)c1,0.92,-3.2

# (listing goes on)
SMILES,CBX7 inh,CBX7 inh z-score
Cc1ccc(CCNC(=O)c2cc(=O)[nH]c3ccc(S(=O)(=O)N4CCCCCC4)cc23)cc1,1,0.25
CCC(=O)N1c2ccccc2NC2=C(C(=O)CCC2)C1c1ccc(OC)cc1 (configuration not stated),1.1,1
Cc1ccc(N2C(=O)CC(N3CCC(C(N)=O)CC3)C2=O)cc1Cl (configuration not stated),1,-0.12
COc1ccccc1-c1nnc(SCC(=O)N2CCOCC2)o1,1.2,2.7
Cn1c(CC(=O)NCCO)c(Sc2ccccc2)c2ccccc21,1,0.89
CCOC(=O)N1CCC(NC(=O)CSCc2nc(-c3ccc(OCC)cc3)oc2C)CC1,0.94,-0.81
c1ccc2sc(SCc3cn4cccnc4n3)nc2c1,0.95,-0.6
Cc1ccc(NCC(O)Cn2c3ccccc3c3ccccc32)cc1 (configuration not stated),0.69,-3.4
CCN(CC)S(=O)(=O)c1ccc2oc(C(=O)Nc3ccc(OC)cc3)c(C)c2c1,0.98,-0.75
CCOC(=O)c1cccc(NC(=O)c2cccc3c2C(=O)N(Cc2cccnc2)C3)c1,0.89,-0.9

# In the list so far, twelve have fluorine:
SMILES,CBX7 inh,CBX7 inh z-score
O=C(Nc1ccc(F)c(F)c1)C1CCCN(S(=O)(=O)c2cnc[nH]2)C1 (configuration not stated),1,0.49
Cc1ccc(S(=O)(=O)N(CC(=O)N2CCN(c3ccccc3)CC2)c2ccccc2F)cc1,0.92,-0.16
O=C(Nc1ccccc1F)C1CCCN(S(=O)(=O)c2cccc3cccnc23)C1 (configuration not stated),0.8,-2.1
O=C(Nc1cccc(F)c1)c1cccc2c1C(=O)N(C1CCCCC1)C2,1.1,4.8
Fc1ccc(CNc2ccnc3cc(Cl)c(Cl)cc23)cc1,0.96,-0.14
O=C(Cn1cnc2c(nnn2Cc2ccc(F)cc2)c1=O)N1CCc2ccccc21,0.84,-2.6
CCCNC(=O)c1nn2c(C(F)(F)F)cc(-c3ccco3)nc2c1Br,1.1,2.5
Cc1nn(-c2ccc(F)cc2)c2c1C(=O)CC(C)(C)C2,1,1.2
O=C(C1CC1)N1CCc2cc(S(=O)(=O)NCCCN3CCN(c4ccccc4F)CC3)ccc21,0.96,-0.44
Cc1c(C(=O)Nc2ccc(F)cc2Cl)sc2ncn(CC(=O)N3CCC(C)CC3)c(=O)c12,1.1,0.93
CCOC(=O)COc1ccc2c(=O)c(-c3ccc4c(c3)OCCO4)c(C(F)(F)F)oc2c1,0.98,-0.33
O=C(c1nn2c(c1Cl)NC(c1ccco1)CC2C(F)(F)F)N1CCN(c2ccc(F)cc2)CC1 (configuration not stated),0.95,-0.59

# This is a subset; count on the stated rates, not on these rows.
